HSD17B inhib: inhibitors of human HSD17B10 dehydrogenase | recombinant HSD17B10, NADH fluorescence kinetic; many of its hits are not listed in these tables | Potency, µM (series often up to 57.1 µM), inactives show at the highest dose activity change, negative = inhibition, actives largely listed as inhibitors | 75,000 compounds, 7.6% hits; active = well fitted inhibition curve with a large enough effect; inconclusive = small, poorly fitted or top-dose-only effect; inactive = no such curve, though single readings can be large or run the other way;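 note: the protocol describes HADH2 (HSD17B10) and not the HSD17B4 of the title; nearly all actives have a fitted effect of over 70% in size; most hits overshoot -100% by far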
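Activity followed as NADH fluorescence increase (ex 360, em 450 nm) every 30 seconds for 4 min, using final 90 uM beta-hydroxybutyryl CoA and 1 mM NAD+. Recombinant His-tagged enzyme, 20 nM, pH 9.0 Tris buffer, 15 min compound preincubation.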
Active calls of the source: *; u = inconclusive; [ ] = remark or other dose. % is set by controls: 0 for no effect and ±100 for the full control effect; potency is the fitted concentration of half-maximal effect. The list is partial. The share of hits here may be higher or lower than overall.

| mol | HSD17B inhib |
| --- | --- |
| COc1ccc(Cc2nnc(NS(=O)(=O)Cc3ccccc3)s2)cc1 | -8.0% |
| COCC(=O)N(C)C1(c2nnnn2CCOC(=O)Nc2cccc3ccccc23)CCCC1 | 10µM* |
| COc1cccc(NC(=O)N2CCC(N3CCCCC3)CC2)c1 | 9.4% |
| Nc1c(NC2CCCCC2)c2ccccc2oc1=O | -4.0% |
| C[n+]1cccc(/C=C\c2ccc3cccc(O)c3n2)c1 | 4.1%[11.4 µM] |
| O=C(c1ccco1)N1CCN(S(=O)(=O)c2ccc(S(=O)(=O)NC3CCCCC3)cc2)CC1 | -2.7% |
| CCOC(=O)c1ccc2c(c1)C(=O)N(C1CCCCC1)C2=O | -1.1% |
| Cc1ncc(CO)c(CN)c1O | 7.0%[11.4 µM] |
| O=C(CN1C(=O)C2(OCCCO2)c2ccccc21)NCCc1ccccc1 | 6.3% |
| COc1ccc(C2C(C#N)=C(N)Oc3cc(N)ccc32)cc1OC (centres undefined) | -13.6% |
| Cc1ccc(-c2noc(CN3CCC(C(N)=O)CC3)n2)cc1 | 5.3% |
| O=C(c1ccc2nc(N3CCOCC3)sc2c1)N1CCCC1 | 3.8% |
| COc1ccc(/C=N/n2c(SC)nnc2-c2ccccc2)cc1C | -7.8% |
| Cc1ccc(C(=O)CSc2n[nH]c(-c3ccco3)n2)cc1C | -8.4% |
| COCc1[nH]nc2c1C1(C(=O)N(C)c3ccccc31)C(C#N)=C(N)O2 (centres undefined) | 5.1% |
| CC(=O)NC12CC3CC(C1)CC(C(=O)OCC(=O)NC(=O)c1cccn1C)(C3)C2 | 0.8% |
| CC(=O)C1=C(O)C(=O)N(CCN2CCOCC2)C1c1ccc(N(C)C)cc1 (centres undefined) | 5.3% |
| O=C(O)C1CCN(C(=O)c2ccccc2C(=O)N2CCC(C(=O)O)CC2)CC1 | 8.0% |
| Cc1ccsc1C1NC(=O)c2ccccc2N1 (centres undefined) | 31.6µM* |
| CCCCSc1nn[nH]n1 | -0.2% |
| COc1cccc(C(=O)Nc2ccc(N(C)C)cc2)c1OC | 0.9% |
| COc1ccc(S(=O)(=O)NCc2ccccn2)cc1Cl | 0.7% |
| CC(C)=CCC/C(C)=C/C=O | 2.5% |
| Cc1ccc(NC(=O)c2oc3c(c2C)C(=O)CC(C)(C)C3)cc1 | -1.9% |
| CCc1ccc(NC(=O)c2cc(-c3ccco3)on2)cc1 | -2.9% |
| C=CCn1c(SCC(=O)/C(C#N)=C(\C)N)nnc1C1CCCCC1 | 4.2% |
| COC(=O)CSc1nnc(CNC(=O)c2ccc(OC)cc2OC)n1C | 6.3% |
| Cc1ccc(CNc2ncnc3c2cnn3-c2ccccc2)cc1 | 1.7% |
| CC(C)Cn1c2c(c(O)c(C(=O)Nc3ccc(F)cc3)c1=O)CCCC2 | u |
| C=CC(=O)c1ccc2ccccc2c1 | 25.1µM* |
| O=C(NCC(=O)N(CC1CCCO1)C(C(=O)NC1CCCC1)c1cccnc1)c1ccco1 (centres undefined) | 9.4% |
| NS(=O)(=O)c1ccc(NC2(C(=O)O)CCCC2)cc1 | 2.9%[11.4 µM] |
| COc1ccc2oc(=O)c(C(=O)N3CCN(c4ccccc4C)CC3)cc2c1 | u |
| CC1CCN(CCc2nc3cc(NS(=O)(=O)c4ccccc4)ccc3n2C)CC1 | 5.7% |
| Cc1[nH]c2ccccc2c1C1(O)C(=O)N(Cc2ccc3c(c2)OCO3)c2ccccc21 (centres undefined) | -9.8% |
| N[C@@H](CC1=CS(=O)(=O)c2ccc(Cl)cc21)C(=O)O | -9.6%[11.4 µM] |
| CCOc1ccc(NC(=O)c2cccc(-n3cnnn3)c2)cc1 | -4.8% |
| Cc1cnc(CNc2ncncc2-c2ccc3c(c2)OCO3)cn1 | 5.3% |
| COc1cc(NC(=O)c2cccc(Cl)c2)c(OC)cc1NC(=O)CN1CCOCC1 | -4.6% |
| N#CCCCSC1=C(C#N)C(c2ccccc2Cl)CC(=O)N1 (centres undefined) | -9.6% |
| Cc1onc(-c2ccccc2Cl)c1C(=O)Nc1nnc(-c2ccc(F)cc2)s1 | -12.6% |
| Cc1cc(=O)oc2cc(OCc3ccc(S(=O)(=O)N4CCOCC4)cc3)ccc12 | 12.6µM* |
| Oc1c(CN2CCN(c3ccccn3)CC2)cc(Cl)c2cccnc12 | -9.1% |
| CN(c1nc(-c2ccccc2)cs1)C1CCS(=O)(=O)C1 (centres undefined) | -2.2% |
| OCC(CO)(CBr)CBr | -4.9% |
| CC(C)c1ccc(-c2nn[nH]n2)cc1 | 5.9% |
| O=C(NCc1ccc2c(c1)OCO2)c1cc(S(=O)(=O)N2CCCCC2)ccc1F | 9.5% |
| Cn1c(=O)oc2cc(S(=O)(=O)N3CCC(C(=O)N4CC=C(c5ccccc5)CC4)CC3)ccc21 | -3.0% |
| COc1ccc(C)cc1S(=O)(=O)N1CCN(Cc2ccccc2)CC1 | -1.0% |
| O=C(O)CN=C(NS(=O)(=O)c1ccccc1)c1ccccc1 | 2.2% |
| COc1nc(-c2ccccc2)ccc1-c1noc(-c2cccs2)n1 | 3.98µM* |
| COC(=O)[C@@H](NC(=O)NCc1ccccc1Cl)C(C)C | 3.5% |
| Cn1c(=O)c2cc(S(=O)(=O)NCCC(=O)NCCc3ccc(Cl)cc3)ccc2n(C)c1=O | -7.7% |
| COc1ccc(CCn2c(NCCCN3CCOCC3)nc3c2c(=O)[nH]c(=O)n3C)cc1 | 0.2% |
| CC(C)NS(=O)(=O)c1ccc(CCC(=O)NCc2ccco2)cc1 | 6.4% |
| COc1ccc(OC)c(C(C)NC(=O)c2ccco2)c1 (centres undefined) | -4.5% |
| O=C(c1cc(Cl)cc(Cl)c1)N1CCOCC1 | 7.6% |
| COC(=O)C(C)NC(=O)C12CC3CC(CC(C3)C1)C2 (centres undefined) | 12.7% |
| CC(C)=CCc1c2c(c3occ(-c4ccc(O)c(O)c4)c(=O)c3c1O)C=CC(C)(C)O2 | 4.0%[11.4 µM] |
| COCCCNC(=O)COc1ccc(S(=O)(=O)Nc2ccccc2)cc1 | 7.5% |

Further compounds follow:
| mol | HSD17B inhib |
| --- | --- |
| CCCCC(=O)NC(Nc1cc(C)ccn1)(C(=O)OCC)C(F)(F)F (centres undefined) | -4.0% |
| O=C(CSc1nnc(-c2cccnc2)n1C1CCCCC1)NC1CCCCC1 | 12.4% |
| O=C(NCC1CCCO1)C1CCN(C(=O)c2ccc(Br)cc2)CC1 (centres undefined) | 0.9% |
| CCOC(=O)C1CCN(CC(=O)N2C(C)CCCC2C)CC1 (centres undefined) | 9.8% |
| Cc1ccc(N(C(=O)Cn2nnc3ccccc32)C(C(=O)NC2CCCCC2)c2cn(C)nc2C)cc1 (centres undefined) | 2.3% |
| CSc1c(C#N)c(N)c(C#N)c2c1COC(C)(C)C2 | 25.1µM* |
| CCCN1C2CCCC1CC(NC(=O)c1cc(OC)c(OC)c(OC)c1)C2 (centres undefined) | -1.5% |
| COc1cccc(-c2ccc3ncnc(N(C)Cc4ccco4)c3c2)c1 | u |
| C[C@H]1[C@H](C)CC[C@]2(C(=O)O)CC[C@]3(C)C(=CC[C@@H]4[C@]5(C)C[C@H](O)[C@@H](O)[C@@](C)(CO)[C@@H]5[C@H](O)C[C@@]43C)[C@H]12 | 7.0%[11.4 µM] |
| Cc1cc(C(F)(F)F)n2nc(C(=O)O)c(Cl)c2n1 | 0.2% |
| COc1cc(NC(=O)CN(c2cc(C)cc(C)c2)S(=O)(=O)c2c(C)noc2C)cc(OC)c1 | 5.6% |
| COc1ccc(NC(=O)C2CCN(C(=O)NC3CCCCC3)CC2)c(OC)c1 | 12.3% |
| Cc1cc(=O)[nH]c(SCC(=O)Nc2ccc(Br)cn2)n1 | 4.2% |
| CCOC(=O)CN1CC23C=CC(O2)C(C(=O)Nc2ccc(C(C)=O)cc2)C3C1=O (centres undefined) | -1.1% |
| Cc1ccccc1NS(=O)(=O)c1cc(C(=O)NCc2ccco2)ccc1C | -4.0% |
| CC(C)C(NC(=O)OCc1ccccc1)C(=O)OCC(=O)NCc1ccco1 (centres undefined) | -13.8% |
| c1ccc(-c2nc(NCc3cccnc3)c3oc4ccccc4c3n2)cc1 | u |
| Cc1ccc(C(=O)Nc2ccc3c(c2)nc2n3CCSC2)cc1 | -5.6% |
| COC(=O)Cn1nc(-c2ccc(C)c(S(=O)(=O)N(C)C)c2)c2ccccc2c1=O | 5.2% |
| COc1cccc(C(=O)Cn2c(N3CCOCC3)nc3c2c(=O)n(C)c(=O)n3C)c1 | 1.3% |
| CCn1c(-c2ccco2)nc2ccccc21 | u |
| CCCCOCCCNC(=O)c1ccc2c(c1)OCO2 | 1.9% |
| CCOC(=O)c1cnn(-c2cccc(Cl)c2)c1N | 6.8% |
| CCCc1c(O)nc(SCCN(CCC)CCC)[nH]c1=O | -0.3% |
| CC(=O)c1c(NCc2ccccc2)nc(=O)n(-c2ccccc2)c1C | -1.0% |
| CCC(Sc1nc2cc3c(cc2c(=O)n1Cc1ccco1)OCO3)C(=O)Nc1ccccc1OC (centres undefined) | 1.0% |
| Cc1nc(SCC(=O)Nc2cc(C)on2)c2c(=O)n(C)c(=O)n(C)c2n1 | u |
| N#CCCSc1ncnc2c1oc1ccccc12 | 4.7% |
| Cc1nnc(OCc2nc3ccccc3n2C)c2ccccc12 | 14.5% |
| Cc1nc2ccccn2c1C(=O)NCc1cccnc1 | -4.6% |

Molecules shown so far containing a CF3 group:
| mol | HSD17B inhib |
| --- | --- |
| CCCCC(=O)NC(Nc1cc(C)ccn1)(C(=O)OCC)C(F)(F)F (centres undefined) | -4.0% |
| Cc1cc(C(F)(F)F)n2nc(C(=O)O)c(Cl)c2n1 | 0.2% |

New compounds follow:
| mol | HSD17B inhib |
| --- | --- |
| O=C1CSC(c2cn(-c3ccccc3)nc2-c2ccc3c(c2)OCCO3)N1CCN1CCOCC1 (centres undefined) | u |
| C(=N/Nc1ccccn1)/c1cccnc1 | 1.0%[11.4 µM] |
| CC(C)N(Cc1nc(-c2ccc(Cl)cc2)no1)C(=O)CCCN1C(=O)c2ccccc2C1=O | -5.0% |
| Cc1ccc(CNC(=O)CCCn2c(=O)c3ccccc3n(CC(=O)NC3CCCC3)c2=O)cc1 | 1.0% |
| Cc1oc(C(=O)O)cc1COc1ccc2c3c(c(=O)oc2c1C)CCCC3 | 3.98µM* |
| COC(=O)C1=C(N)Oc2cc(C)n(Cc3ccco3)c(=O)c2C1c1cccc(Cl)c1 (centres undefined) | -13.0% |
| CC(C)C[C@H](NC(=O)Nc1ccc(S(N)(=O)=O)cc1)C(=O)O | 5.6% |
| COc1cccc(NS(=O)(=O)c2ccc3c(c2)n(C)c(=O)c(=O)n3C)c1 | -3.0% |
| COC(=O)C1=C(N)N(c2ccc(F)cc2)C2=C(C(=O)CCC2)C1c1ccc2c(c1)OCO2 (centres undefined) | -13.6% |
| Cc1cccc(Nc2nc(-c3ccccn3)cs2)n1 | -3.9% |
| Cn1cc(C(=O)NCCN2CCN(c3cccc(Cl)c3)CC2)c2c3ccccc3n(C)c2c1=O | 1.1% |
| COC(=O)c1ccc(NC(=O)CN2C(=O)CSC2=O)cc1 | 9.8% |
| C=CCSc1nc2c(c(=O)[nH]c(=O)n2C)n1Cc1ccc(C)cc1 | 3.6% |
| COC(=O)N1[C@H](C)C=C[C@]1(Cc1ccccc1)C(=O)OC | 10.5% |
| O=C(O)[C@@H]1[C@@H](C(=O)NCc2cccnc2)[C@@H]2C=C[C@@H]1O2 | -3.6%[11.4 µM] |
| O=C(CC1(O)C(=O)Nc2ccccc21)c1ccc(-n2cccc2)cc1 (centres undefined) | -4.0% |
| COc1ccc(S(=O)(=O)N2CCN(C3CCN(Cc4ccccc4)CC3)CC2)cc1 | -0.5% |
| COc1ccc(S(=O)(=O)N2CCCCCC2)cc1C(=O)OCc1c(C)noc1C | -18.0% |
| CC1CCN(C(=O)c2ccc(COc3ccccc3Cl)o2)CC1 | -7.7% |
| COC(=O)c1cc(NC(=O)CN(c2ccc3c(c2)OCO3)S(C)(=O)=O)ccc1Cl | 0.3% |
| CCOC(=O)c1ccc(NC(=O)NC(C)C2CCCO2)cc1 (centres undefined) | 7.4% |
| COc1ccc(S(=O)(=O)N2CCCN(CC(=O)C(C)(C)C)CC2)cc1 | -0.5% |
| CCc1sc(C(=O)NC)cc1Br | -4.1% |
| OCc1ccccc1OCCOc1ccc(Cl)c2cccnc12 | -24.8% |
| CCOC(=O)C1CCN(C(=O)CSc2cc(=O)n(CC)c3ccccc23)CC1 | u |
| CC1CCCC(NC(=O)C2CCN(S(=O)(=O)N3CCC4(CC3)OCCO4)CC2)C1C (centres undefined) | 2.4% |
| O=C(NCc1ccccc1)N1CCC(n2cnc3cc(F)ccc32)CC1 | 2.5% |
| COc1ccc(OCC(=O)Nc2ccc(S(=O)(=O)Nc3cc(C)nc(C)n3)cc2)cc1 | 0.0% |
| COC(=O)c1ccc(NC(=O)CSc2nncn2C)cc1 | -0.4% |
| Cc1nnc2c(-c3ccccc3)nc3ccccc3n12 | u |
| O=C(c1ccncc1)N1CCC2(CC1)CCN(c1ncccn1)CC2 | -8.5% |
| CCSc1nnc(-c2ccccc2NC(=O)CC)c(=O)[nH]1 | -4.2% |
| COc1ccc(S(=O)(=O)NCc2ccccn2)c(Cl)c1Cl | 0.3% |
| COCCNC(=O)Cn1nc(C)c2ccccc2c1=O | 15.8% |
| COCCCNC(=O)CSC1=Nc2ccccc2C2=NC(CC(=O)NCc3ccccc3)C(=O)N12 (centres undefined) | 31.6µM* |
| COC(=O)c1c(NC(=O)c2nc3ncccn3n2)sc(C(=O)N(C)C)c1C | -1.7% |

Screening data deposited in PubChem by National Center for Advancing Translational Sciences (NCATS).
